# 12-hLO inh – qHTS Assay for Inhibitors of 12-hLO (12-human lipoxygenase); purified 12-hLO, xylenol orange hydroperoxide absorbance; Potency, µM (series often up to 57.1 µM), inactives show at the top dose activity change, negative = inhibition, usual class: inhibitors; 150,000 compounds, 0.12% hits; AID 1452, 2008; active = well fitted inhibition curve with a large enough effect; inconclusive = small, poorly fitted or top-dose-only effect; also: potency is read from the fitted curve at half-maximal effect; nearly all actives have a fitted effect of over 55% in size; many of its hits are not listed in these tables
# Target sequence (P18054 whole entry, looked up): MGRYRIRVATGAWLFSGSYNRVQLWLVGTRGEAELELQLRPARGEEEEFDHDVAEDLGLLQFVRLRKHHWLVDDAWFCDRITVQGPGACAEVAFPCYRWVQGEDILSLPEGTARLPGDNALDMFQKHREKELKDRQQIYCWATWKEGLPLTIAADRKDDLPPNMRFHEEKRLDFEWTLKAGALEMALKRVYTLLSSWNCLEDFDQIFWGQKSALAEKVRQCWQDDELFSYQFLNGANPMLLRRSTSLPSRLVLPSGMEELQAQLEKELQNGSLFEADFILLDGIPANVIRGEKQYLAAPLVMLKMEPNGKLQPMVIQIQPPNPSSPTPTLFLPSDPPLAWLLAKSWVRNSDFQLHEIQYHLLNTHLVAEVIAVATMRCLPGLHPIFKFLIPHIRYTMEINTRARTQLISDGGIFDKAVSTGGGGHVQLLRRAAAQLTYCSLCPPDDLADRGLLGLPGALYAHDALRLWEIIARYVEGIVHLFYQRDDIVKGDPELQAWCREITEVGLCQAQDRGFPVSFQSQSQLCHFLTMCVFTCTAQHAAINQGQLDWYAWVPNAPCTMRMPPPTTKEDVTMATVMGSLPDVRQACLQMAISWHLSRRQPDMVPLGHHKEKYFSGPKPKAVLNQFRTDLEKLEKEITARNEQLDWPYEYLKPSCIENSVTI
#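 150 nM 12hLO, 25 mM Hepes pH 7.0 + 0.01% Triton X-100; cpd preinc 15 min RT; 40 uM arachidonic acid, 30 min RT; Fe-XO 30 min; A573/A405 ratio as read-out.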
# PNC inhibitor – High Content Assay for Compounds that inhibit the Assembly of the Perinucleolar Compartment | 140,000 compounds, 3.1% hits | activity change (PNC), negative = inhibition, % at 10 µM | PC3M PTB-GFP, PNC prevalence imaging, 16 h; stronger effect = lower value;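 active = readout at or below -70, meaning at least 70% loss of cells showing the perinucleolar compartment, a nuclear body marking cancer cells; inconclusive = readout between -30 and a set limit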;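 also: plate controls were DMSO wells for no effect and camptothecin positive control wells for full effect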
#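 Compounds are pinned in duplicate onto adhered PC3M cells stably expressing GFP-tagged PTB and incubated 16 h at 37 C. Cells are then fixed, nuclei stained with Hoechst, and PNC-positive cells counted.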
# IMPase cell inh – qHTS Assay for Identifying the Cell-Membrane Permeable IMPase Inhibitors; AID 901, 2007; 120,000 tested, under 10 active; CHO-M1 cells, IP1 accumulation, HTRF TR-FRET ratio; inhibition (IP1 accumulation), % at 46.1 µM; active = well fitted curve in the direction sought with a large enough effect in the signal ratio, not every such curve was filed as active; inconclusive = small, poorly fitted or top-dose-only effect, or a change in a side signal; inactive = no such curve, though single readings can be large or run the other way; the % refers to the signal ratio;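 also: cells stimulated with carbachol in lithium chloride buffer; plate controls were DMSO basal wells for no effect and reference inhibitor wells for full effect; higher means more IMPase inhibition seen as more IP1 and lower FRET ratio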
# Target sequence (P97697 whole entry, looked up): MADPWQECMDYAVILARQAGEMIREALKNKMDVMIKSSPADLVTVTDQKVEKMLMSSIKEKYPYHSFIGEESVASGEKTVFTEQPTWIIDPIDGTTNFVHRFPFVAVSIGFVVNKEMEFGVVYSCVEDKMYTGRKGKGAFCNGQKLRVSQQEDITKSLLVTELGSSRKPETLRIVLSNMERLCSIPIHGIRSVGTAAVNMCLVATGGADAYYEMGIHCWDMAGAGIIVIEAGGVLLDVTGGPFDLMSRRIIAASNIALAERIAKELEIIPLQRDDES
#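 In this qHTS, compounds (final up to 46 uM) act on CHO-M1 cells that are then activated through the M1 receptor with carbachol, in pH 7.4 buffer containing 50 mM LiCl, for 30 min. IP1 accumulation is quantified by the IP-One immunoassay.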
# Active calls of the source: *; u = inconclusive; x = not tested or not shown; & = joins results of further samples; [ ] = remark or other dose. Unless noted, % is scaled to controls: 0 for no effect and ±100 for the full control effect. This is a subset. The share of hits here may be higher or lower than overall.
Structure	12-hLO inh	PNC inhibitor	IMPase cell inh
Cc1nc2ccc(N)cc2c(=O)n1Cc1ccc(Cl)cc1	-4%	-28	3
CCc1nc(NCC2CCCN2CC)c2nnn(Cc3ccccc3F)c2n1 (centres undefined)	1%	18	5
O=S(=O)(c1ccccc1)N1CCN(c2cc(-c3ccccc3)nc3ncnn23)CC1	3%	12	7
CCOc1ccc(NC(=O)c2cnsn2)cc1	-2%	u	9
CCC(=O)NS(=O)(=O)c1cccnc1Nc1ccccc1Cl	-1%	20	1
Cc1ccc(C)c(OCC(=O)Nc2nonc2NC(=O)COc2cc(C)ccc2C)c1	0%	8	-11
CC(C)CCn1c(=O)c2ccccc2n2c(CN3C(=O)NC4(CCC(C)CC4)C3=O)nnc12 (centres undefined)	-1%	24	3
CCOC(=O)c1c(NS(C)(=O)=O)sc2c1CCC(C)C2 (centres undefined)	-9%	3	-11
Cc1nn(-c2ccccc2)c2[nH]c(=O)c(CNCCN3CCOCC3)cc12	-1%	-5	u
COc1ccccc1NC(=O)CN1CCC(n2c(C)nc3cc(F)ccc32)CC1	2%	-20	12

# Next results.
Structure	12-hLO inh	PNC inhibitor	IMPase cell inh
CCOC(=O)c1cc(C#N)c(Oc2ccc(F)cc2)nc1-c1ccccc1	-1%	64	18
CCOc1ccccc1-c1n[nH]c(=S)o1	3%	u	u
O=c1oc(-c2ccccc2[N+](=O)[O-])nc2ccccc12	0%	u	11
O=C(CSc1ncnc2sc3c(c12)CCCC3)N1CCC(c2noc3ccc(F)cc23)CC1	-2%	u	-7
Cc1nnc(SCC(=O)Nc2ccc(Cl)cn2)n1Cc1ccccc1	-2%	-26	-9
Cc1no[n+]([O-])c1COc1ccc(/C=C2\NC(=S)NC2=O)cc1	-2%	29	-6
CCOC(=O)c1c(NC(=O)Cn2cnc([N+](=O)[O-])n2)sc2c1CCC(C)C2 (centres undefined)	0%	23	-7
Cc1cccc(OCC(=O)Nc2sc3c(c2C#N)CCC3)c1	-2%	u	-3[1.84 µM]
Cc1cc(C)c(-c2cc(C(=O)Nc3c(C)n(C)n(-c4ccccc4)c3=O)[nH]n2)c(O)c1	-2%	u	-7[1.84 µM]
CCc1ccc(CCC(=O)Nc2nc(CC(C)=O)ns2)o1	-5%	13	-4

# Sorted by SMILES length (ascending): 4 of the compounds above
Structure	12-hLO inh	PNC inhibitor	IMPase cell inh
CCOc1ccccc1-c1n[nH]c(=S)o1	3%	u	u
CCc1ccc(CCC(=O)Nc2nc(CC(C)=O)ns2)o1	-5%	13	-4
CCOC(=O)c1c(NC(=O)Cn2cnc([N+](=O)[O-])n2)sc2c1CCC(C)C2 (centres undefined)	0%	23	-7
Cc1cc(C)c(-c2cc(C(=O)Nc3c(C)n(C)n(-c4ccccc4)c3=O)[nH]n2)c(O)c1	-2%	u	-7[1.84 µM]

# (more compounds)
Structure	12-hLO inh	PNC inhibitor	IMPase cell inh
Cc1cc(C)c(S(=O)(=O)Nc2cccc(C(F)(F)F)c2)c(C)c1	-10%	x	0
COc1ccccc1NC(=O)N(Cc1ccccc1)C1=NCC(C)S1 (centres undefined)	-5%	-10	5
COc1ccccc1CCn1c(N)c(C#N)c2nc3ccccc3nc21	-6%	27	-3
COc1ccc(NC(=O)c2cccnc2Nc2ccccc2)cc1	-7%	u	5
O=C(Nc1ccccc1Oc1ccccc1)c1cccc([N+](=O)[O-])c1	-9%	-19	3
CC(C)(O)C(=O)NN(C(=O)c1ccccc1)c1ccc2ccccc2c1	-5%	-3	9
CCN(Cc1ccncc1)C(=O)c1cccs1	11%	u	8
COC(=O)COC(=O)CC(CC(N)=O)c1ccccc1 (centres undefined)	-3%	14	-1
N#Cc1cn(CC(=O)N2CCCC2)c2ccccc12	-4%	-21	5
CCOC(=O)Nc1cccc(Nc2ccccc2)c1	-11%	u	-2

# Next section.
Structure	12-hLO inh	PNC inhibitor	IMPase cell inh
CC(Cc1ccccc1)C(=O)N1CCN(C)CC1 (centres undefined)	-1%&0%	45	x
Cc1cc(-c2[nH]nc3c2C(c2cccc(O)c2)C(C#N)=C(N)O3)c(C)s1 (centres undefined)	0%	12	9
COc1ccc(N(C(=O)c2ccccc2OC(C)=O)C(C)C2CC2)cc1 (centres undefined)	-10%	21	6
Cc1ccc(C2=NNC(C(O)C(O)C(O)C(O)CO)S2)cc1 (centres undefined)	-5%	-12	-5
CCc1cc2c(cc3c(=O)n(CC(=O)NCCCN4CC(C)CC(C)C4)ncn32)s1 (centres undefined)	-1%	4	4
COc1cc2c(cc1NC(=S)Nc1ccccc1C)oc1ccccc12	-2%	u	-5
O=C1C2CCCN2C(c2cccs2)N1c1ccc(Cl)cc1 (centres undefined)	-17%	u	3
CC1=C(C(=O)OCc2ccccc2)C(c2cccnc2)n2nnnc2N1 (centres undefined)	-7%	22	1
CC(SCc1ccccc1)C(=O)Nc1ccc2c(c1)OCO2 (centres undefined)	-9%	-25	-1
COc1cc2c(cc1OC)CN(C(=O)CC1CC3CCC1C3)CC2 (centres undefined)	-8%	-26	6

# Next compounds follow.
Structure	12-hLO inh	PNC inhibitor	IMPase cell inh
Fc1ccccc1C(c1nnnn1Cc1ccc2c(c1)OCO2)N1CCN(Cc2ccccc2)CC1 (centres undefined)	u	u	8
Nc1c(C(=O)Nc2ccccc2)sc2nc(-c3ccco3)ccc12	-13%	11	u
CCOc1ccc(C(=O)Nc2nncs2)cc1OCC	5%	u	1
O=C(CCCn1c(=S)[nH]c2ccccc2c1=O)N1CCCCC1	0%	-13	3[1.84 µM]
CC(O)C(=O)NCCOCCOCCNC(=O)C(C)O (centres undefined)	7%	32	2
Cc1nc2ncnn2c(C)c1CCC(=O)NCCCN1CCN(c2cccc(Cl)c2)CC1	-1%	-17	10
N#CC(c1ccccc1)(c1ncc(C(F)(F)F)cc1Cl)N1CCOCC1 (centres undefined)	0%	34	1
Cc1cc2c(cc1C)N(C(=O)CSC1=NCCS1)C(C)(C)c1ssc(=S)c1-2	u	u	13
CCn1c(Cc2ccccc2)nnc1SCC(=O)Nc1ccccc1	1%	-28	10
CCOC(=O)Cc1csc(SCC(=O)/C(C#N)=C(\C)N)n1	3%	42	-2

# (next part)
Structure	12-hLO inh	PNC inhibitor	IMPase cell inh
CC(c1ccccc1)C1CC(=O)N(CC(=O)O)C1=O (centres undefined)	-2%	u	1
CCCCC1(C)Cc2ccccc2C(=S)N1 (centres undefined)	u	-1	0
CCCCOc1ccc(N2C(=O)CC(N(O)c3ccccc3)C2=O)cc1 (centres undefined)	-17%	-18	-3
CC(=O)c1cc(-c2ccccc2)n(CC(=O)NC2CCCC2)c1C	-3%	-11	-6
Cc1cccc(OCC(=O)NNC(=O)CSc2ncc(C#N)c(N)n2)c1	4%	5	5
Cc1cc(C)c2[nH]c(=S)cc(C)c2c1	-9%	19	-12
CSC1=C(C#N)C(C)C2=C(CC(C)(C)CC2=O)N1 (centres undefined)	2%	-6	1
COc1ccc(NC(=S)NN2CCN(C)CC2)cc1	1%	67	2
CCSc1nc(N)c2c3c(sc2n1)CN(C)CC3	-6%	-22	2
COCCn1c(=NC(=O)CSCC(=O)NC2CCCCC2)sc2cc(OC)ccc21	4%	-9	3

# Next part:
Structure	12-hLO inh	PNC inhibitor	IMPase cell inh
CC1CCN(C(=O)CN2C(=O)C(=O)c3ccccc32)CC1	2%	-21	2
COc1cccc(OCC(=O)NNC(=O)c2ccc(-c3ccccc3)cc2)c1	3%	43	-4
COc1ccc2cc(C(=O)NCc3ccco3)c(=Nc3ccc(C(=O)O)cc3)oc2c1	6%	-5	-1
Cc1cc(C)nc(/N=C(\N)Nc2cc([N+](=O)[O-])ccc2C)n1	3%	79	11
O=C(Nc1ccc2oc(=O)ccc2c1)c1ccco1	-7%	0	18
CCOC(=O)c1cc(C#N)c(Oc2ccccc2OC)nc1-c1ccccc1	6%	59	18
Cc1ccc(-c2nn(-c3ccccc3)c3[nH]c(=O)c(CNCCN(C)C)cc23)cc1	0%	u	-10
CN1CCN(c2cc(-c3ccccc3)nc3cc(-c4ccc(F)cc4)nn23)CC1	-4%	23	-6
O=C(Nc1cccc(-c2nc3ccccc3[nH]2)c1)c1ccco1	-6%	u	u
CCOC(=O)c1c(-c2ccccc2)nnn1-c1nc(OCC)nc(N2CCCCC2)n1	0%	1	3

# Next records
Structure	12-hLO inh	PNC inhibitor	IMPase cell inh
FC(F)(F)c1cnc(-c2cnc3c(-c4ccc(Cl)cc4)cnn3c2)c(Cl)c1	4%	u	1[1.84 µM]
Cn1c(CCN2CCCCC2)nc2cc([N+](=O)[O-])ccc21	-16%	u	9
O=c1cc(NC2CCCCC2)c2ccccc2o1	0%	21	-4
COC(=O)c1nnn(CC(=O)Nc2cccc(Cl)c2C)c1C(=O)OC	-1%	-22	-10
O=C(OCC(=O)N(C1CCCCC1)C1CCCCC1)c1ccncc1	-2%	-12	-2
COc1ccc(C2=CSC(/N=C/c3ccc(F)cc3)=NN2)cc1	-30%	-6	1
COc1cc(Br)cc2cc(C(=O)NCC3CCCO3)c(=O)oc12 (centres undefined)	5%	36	-18
CC(=O)c1ccc(NC(=O)CSc2nnc(-c3ccoc3C)n2Cc2ccccc2)cc1	-5%	u	2
Cc1ccccc1OCCSc1nnc(-c2ccncc2)n1C	6%	40	-3
Fc1cccc(Cl)c1CSc1ncn[nH]1	-4%	-13	9

# The list goes on.
Structure	12-hLO inh	PNC inhibitor	IMPase cell inh
CCCCCCNCc1ccc(Br)cc1	-6%	u	8
CC1(CC(=O)N/N=C/c2ccc(-c3ccc(C(=O)O)cc3)o2)OCCO1	-1%	19	2
CC(C)NC(=O)C(OC(=O)c1ccccc1)C(OC(=O)c1ccccc1)C(=O)O (centres undefined)	5%	-2	-6
O=C(Nc1ccc2oc(=O)ccc2c1)c1cccnc1Cl	0%	90	-3
COc1nc(Nc2ccc3c(c2)OCO3)nc(OC)n1	-3%	2	5
CC(N=Cc1ccccc1O)c1ccccc1 (centres undefined)	-6%	-14	2
CCC(C)(C)n1nnnc1C(c1cccs1)N1CCN(Cc2ccccc2)CC1 (centres undefined)	2%	-21	9
O=C(Nc1ccc(Cl)cn1)C1CCCN1S(=O)(=O)c1ccccc1 (centres undefined)	4%	-6	-13
CC(=O)NC(Cc1ccc(C)cc1)C(=O)NC1CCN(C(=O)c2cnccn2)CC1 (centres undefined)	5%	6	2
Cc1ccccc1OCCCC(=O)Nc1ccc2c(c1)OCO2	-3%	u	21

# Other entries:
Structure	12-hLO inh	PNC inhibitor	IMPase cell inh
COc1cc(OC)cc(C(=O)NC(=S)NCc2ccco2)c1	u	11	-6
Cc1nn(-c2nc3ccccc3s2)c(N)c1-c1ccccc1	1%	u	4
C/C(=N\NC(=O)c1ccccc1O)c1c(O)cc(C)oc1=O	-14%	19	7
C=CCn1c(CCNC(=O)c2ccccc2F)nnc1SCc1nc2ccccc2c(=O)[nH]1	-6%	5	-2
N#Cc1ccc(Oc2ccc(/C=N/O)cn2)cc1	5%	-1	-3[1.84 µM]
O=C(NCc1ccco1)c1ccc(Cn2c(=O)c3ccccc3n(Cc3cccc(F)c3)c2=O)cc1	3%	5	1
COc1cc2c(cc1NC(=S)Nc1cccc3ccccc13)oc1ccccc12	-26%	2	-4
CC1Cc2ccccc2N1C(=O)CN1C(=O)CN(C)C(=O)c2ccccc21 (centres undefined)	-3%	u	1
CCOC(=O)C1CCCN(c2nc3ccccc3nc2C(C#N)C(=O)NCc2ccccc2)C1 (centres undefined)	-4%	u	11
CC1CCc2c(sc3ncnc(SCC(=O)N4CCN(C(=O)c5ccco5)CC4)c23)C1 (centres undefined)	1%	-25	2

# Carrying on:
Structure	12-hLO inh	PNC inhibitor	IMPase cell inh
CC(C)C(C(=O)N1CCOCC1)N1C(=O)c2ccccc2C1=O (centres undefined)	-8%	-9	-3
Cc1cc(N2CCCN(C)CC2)nc2cc(Cl)ccc12	6%	-17	13
Cn1c(SCC(=O)Nc2nc3c(s2)CCCC3)nnc1-c1ccccc1	-4%	-30	5
O=Nc1c2nc3ccccc3n(O)c-2c2ccccc12	-21%	u	u
Cc1ccc(OCCn2c(C3CC(=O)N(Cc4ccccc4)C3)nc3ccccc32)cc1 (centres undefined)	-5%	u	-2
CCCCN1CCCCC1C(=O)Nc1c(C)cc(C)cc1C (centres undefined)	0%	25	5
COc1ccc(S(=O)(=O)Nc2ccc(S(=O)(=O)N3CCCC3)cc2)cc1	-1%	39	9
O=C1NCC(O)=C1C=NC12CC3CC(CC(C3)C1)C2	3%&-4%	19&9	-1&0

# Bioassay records as filed in PubChem BioAssay.
